MARV entry inh: qHTS for inhibitors of binding or entry into cells for Marburg Virus; AID 540276, 2011; Potency, µM (top dose mostly 37.8 µM), for the others: top-dose activity change, negative = inhibition, hits mostly inhibitors; Marburg virus pseudotyped entry inhibition, cell reporter; control for the full effect not named in the record; about a third of the inactives were read at about 46 µM; hit rate 1.8% among 300,000; active = well fitted inhibition curve with a large enough effect; inconclusive = small, poorly fitted or top-dose-only effect, or effect the other way; inactive = flat fitted curve, though single readings scatter; tested in HEK293 cells; about a fifth of its hits are not listed in these tables; also: % is scaled to controls: 0 for no effect and ±100 for the full control effect; luciferase read-out
RE007 growth inh: qHTS Assay for Inhibitors of the HIV-1 protein Vpr; S. pombe RE007 Vpr strain, BacTiter-Glo ATP luminescence, 24 h; control for the full effect not named in the record; Potency, µM (titrated, usually from 92.2 µM), for inactives: at the top dose activity change, negative = less growth; hit rate 0.21% among 360,000; active = well fitted falling curve with a large enough effect; inconclusive = small, poorly fitted or top-dose-only effect; inactive = no such curve, though single readings can be large or run the other way;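 also: % is scaled to controls: 0 for no effect and ±100 for the full control effect; nearly all actives have a fitted effect of over 50% in size; the assay follows cell death caused by Vpr and the record does not say whether a fall means rescue or toxicity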
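Fission yeast RE007 carrying one integrated HIV-1 vpr copy, seeded at OD 0.01 in PMG+AL medium with 23 nL pinned compound. Grown 24 h at 30 degrees; viability read by BacTiter-Glo luminescence after 5 min.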
Cruzain noTriton: qHTS Assay for Promiscuous and Specific Inhibitors of Cruzain (without detergent); Cruzipain (Trypanosoma cruzi), P25779; purified cruzain, Z-FR-AMC fluorescence, no detergent; Potency, µM, without a hit: max response, negative = inhibition, usual class: inhibitors; hit rate 2.3% among 200,000; AID 1476, 2009;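 also: plate controls were enzyme without inhibitor for no effect and buffer without enzyme for full effect; nearly all actives have a fitted effect of over 40% in size; top concentration of the series not given in the record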
Target sequence (P25779 123-467 limits assumed): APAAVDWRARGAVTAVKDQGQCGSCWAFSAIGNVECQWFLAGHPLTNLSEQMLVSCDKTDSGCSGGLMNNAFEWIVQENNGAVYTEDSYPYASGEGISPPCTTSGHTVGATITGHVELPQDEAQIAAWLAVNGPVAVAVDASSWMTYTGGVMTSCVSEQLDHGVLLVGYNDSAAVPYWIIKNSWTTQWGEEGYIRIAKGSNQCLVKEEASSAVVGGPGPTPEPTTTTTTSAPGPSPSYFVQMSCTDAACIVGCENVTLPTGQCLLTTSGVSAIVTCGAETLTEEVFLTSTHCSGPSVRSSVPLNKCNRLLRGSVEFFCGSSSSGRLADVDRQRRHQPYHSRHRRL
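Purified cruzain at 1.5 nM, pre-incubated 15 min with compound at room temperature in 100 mM sodium acetate pH 5.5, 5 mM DTT, 0.00005% Triton X-100. Reaction started with 2 uM Z-FR-AMC; AMC fluorescence increase over 60 s gives rate.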
NS1 function inh: qHTS Assay for Inhibitors of Influenza NS1 Protein Function; S. cerevisiae slowed by influenza A NS1, growth recovery by OD600; Potency, µM (highest dose often 46.1 µM), for the others: at the top dose activity, positive = more growth; hit rate 0.4% among 270,000; active means well fitted rising curve with a large enough effect; inconclusive means small, poorly fitted or top-dose-only effect; inactive means no such curve, though single readings can be large or run the other way; also: nearly all actives have a fitted effect of over 50% in size
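Compounds were scored for reversing the slow growth caused by influenza A NS1 in S. cerevisiae, measured by optical density at 600 nm. Assay medium contained 2% galactose at pH 6.0; NS1-free yeast of the same strain were the positive control.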
LASV entry inh: qHTS for Inhibitors of binding or entry into cells for Lassa Virus; Lassa virus pseudotype entry inhibition, cell reporter; control for the full effect not named in the record; Potency, µM (highest dose often 37.9 µM), for the others: at the top dose activity change, negative = inhibition, hits mostly inhibitors; hit rate 1.2% among 300,000; AID 540256, 2011; active means well fitted inhibition curve with a large enough effect; inconclusive means small, poorly fitted or top-dose-only effect, or effect the other way; inactive means flat fitted curve, though single readings scatter; tested in HEK293 cells; also: % is scaled to controls: 0 for no effect and ±100 for the full control effect; nearly all actives have a fitted effect of over 50% in size; luciferase read-out
2A StopGo: High Throughput Screening for Foot and Mouth Disease Virus Antivirals | human cells with a luciferase reporter of 2A StopGo recoding; control for the full effect not named in the record | Potency, µM (highest dose often 57.9 µM), inactives show at the top dose signal change, negative = less light | hit rate 1.2% among 410,000; active = well fitted falling curve with a large enough effect; inconclusive = small, poorly fitted or top-dose-only effect; inactive = no such curve, though single readings can be large or run the other way; tested in HEK293T cells; also: % is scaled to controls: 0 for no effect and ±100 for the full control effect; nearly all actives have a fitted effect of over 45% in size; luciferase light after 4 h
Cruzain Triton: qHTS Assay for Promiscuous and Specific Inhibitors of Cruzain (with detergent). Cruzipain (Trypanosoma cruzi), P25779. purified cruzain, Z-FR-AMC fluorescence, 0.01% Triton. Potency, µM, for inactives: max response, negative = inhibition, actives largely listed as inhibitors. hit rate 0.43% among 200,000;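 also: plate controls were neutral wells for no effect and buffer without enzyme for full effect; nearly all actives have a fitted effect of over 40% in size; top concentration of the series not given in the record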
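Detergent-containing run (0.01% Triton X-100) in acetate buffer pH 5.5 with 5 mM DTT: enzyme at 1.5 nM final, 15 min compound preincubation at room temperature, then 2 uM Z-FR-AMC substrate. Activity taken as 60 s fluorescence increase at 360/450 nm.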
SARS PLP yeast: qHTS of Yeast-based Assay for SARS-CoV PLP. S. cerevisiae expressing SARS-CoV PLpro, growth rescue; control for the full effect not named in the record. hit rate 0.19% among 330,000. Potency, µM (top dose mostly 32.9 µM), for the others: at the highest dose activity, positive = growth rescue; active means well fitted rising curve with a large enough effect; inconclusive means small, poorly fitted or top-dose-only effect; inactive means no such curve, though single readings can be large or run the other way; also: 0% is about no effect; nearly all actives have a fitted effect of over 55% in size; growth read by luminescence after 48 h
Active calls of the source: *; ? = inconclusive; nt = not tested or not shown; & = joins results of further samples; [ ] = another dose, or the depositor's remark. Unless noted, calls follow the shape of the dose curve; as a rule, active = well fitted curve in the direction sought with a large enough effect; inconclusive = small, poorly fitted or top-dose-only effect, or another doubt; inactive = no such curve, though single readings can be large; an effect the other way counts as inactive or inconclusive. Potency is read from the fitted curve at half-maximal effect.

SMILES	MARV entry inh	RE007 growth inh	Cruzain noTriton	NS1 function inh	LASV entry inh	2A StopGo	Cruzain Triton	SARS PLP yeast
Cc1cc(O)c(C(c2cccc(Cl)c2)N2CCN(c3ccccc3)CC2)c(=O)n1Cc1ccco1 (stereo unspecified)	nt	nt	?	nt	?	?	1.6%	nt
Cc1occc1C(=O)NCCCCc1ccccc1	?	?	-2%	-92%	16%	13%	-4.5%	-23%
COc1cc(OC)cc(C(=O)Nc2ccc3c(c2)OCCO3)c1	?	-22%	-10%	-21%	-8%&-4%[46.1 µM]	26%&48%	0.5%	-13%
COC(=O)C1C(=O)C=C(Nc2ccc(F)cc2)CC1c1ccc(OC)cc1 (stereo unspecified)	?	6%	-14%	-4%	21%	84%[activator]	-3.2%	-20%
C/C(=N/NC(=O)CNC(=O)c1ccccc1)c1ccc(C)cc1	-8%[46.1 µM]	1%	nt	nt	-6%	2%	nt	2%
CCOC(=O)CSc1nc2ccc(N3CCOCC3)cc2c(=O)n1Cc1ccc2c(c1)OCO2	nt	nt	?	?	nt	nt	-5.2%	-2%
Cc1cc(=O)[nH]c2cc(Cl)ccc12	19%	1%	-6%	-4%	6%	nt	5.9%	13%
COc1ccc(/C=C(\NC(=O)c2ccco2)C(=O)N2CCCCC2)cc1	?	-12%	nt	-7%	-11%[46.1 µM]	3%	nt	-5%
CCOC(=O)N1CCN(CCC(=O)Nc2cc(C)ccc2OC)CC1	-5%[46.1 µM]	-2%	nt	1%	17%	-4%	nt	0%
COc1cc(C2CC(c3c(C)cc(C)[nH]c3=O)=NN2c2ccccc2F)cc(OC)c1OC (stereo unspecified)	-13%	-2%	nt	-1%	1%	-2%	nt	-5%
CCCn1nnc(NC(=O)c2ccc(Cl)cc2Cl)n1	-20%	4%	-11%	7%	0%	31%[activator]	0.4%	-3%
Cc1ccc(Cn2c(SCc3ccc(C(=O)N4CCCCCC4)cc3)nc3ccncc32)cc1	?	nt	3%	nt	-27%[46.1 µM]	-37%	-17%	nt
O=C(COC(=O)c1ccc(Cl)s1)c1cc2ccccc2o1	?	-24%	?	-4%	-4%	28%	-7.7%	4%
O=C(CCc1ccc(S(=O)(=O)N2CCOCC2)cc1)OCc1nc2ccccc2s1	0%&9%	-5%	?	-73%	6%	46%[activator]	-3.2%	-9%
Cc1nn(-c2ccccc2)c(C)c1CN	?	-8%	nt	-2%	2%	-15%	nt	-1%
Cc1ccc(CN(Cc2cccnc2)C(=O)CN2C(=O)COc3ccccc32)o1	-21%	-5%	-7%	-68%	10%	-12%	2.1%	-2%
CC(NC(=O)CC1SC(N)=NC1=O)c1ccccc1 (stereo unspecified)	nt	-4%	nt	0%	nt	-7%	nt	0%
O=C(NC1Cc2ccccc2C1)c1cc(COc2ccc(F)cc2Cl)on1	nt	4%	nt	-3%	nt	4%	nt	0%
O=C(NCc1ccc(F)cc1F)Nc1cnccc1C(F)(F)F	nt	5%	nt	7%	nt	-12%	nt	-1%
COc1ccc(NC(=O)COc2nc3ccccc3nc2N2CCOCC2)c(OC)c1	0%[46.1 µM]	1%	nt	13%	16%	-16%	nt	1%
CCOC(=O)Cn1c(=O)oc2cc(S(=O)(=O)N(C)c3cccc(C)c3)ccc21	-4%[46.1 µM]	8%	nt	0%	2%	-14%	nt	-2%
CCCc1c(O)nc(SC2CC(=O)N(c3cc(OC)ccc3OC)C2=O)[nH]c1=O (stereo unspecified)	-6%	-20%	-9%	3%	4%	-13%	4.1%	-2%
O=C1N/C(=C/c2ccc(N3CCOCC3)o2)C(=O)N1c1cccc(Cl)c1	?	-3%	nt	7%	-30%	-17%	nt	0%
CCOC(=O)C1CCCN(CCC(=O)Nc2ccc(F)c(F)c2)C1 (stereo unspecified)	2%	1%	-8%	-3%	1%	nt	4.4%	4%
C(#CCN1CCOCC1)COCC#Cc1ccccc1	?	-6%	4%	?	1%	-3%	-3.0%	-3%
Cc1ccc(NC(=O)C2CCN(c3ncnc4sc(C)c(C)c34)CC2)cc1S(=O)(=O)N(C)C	?	8%	nt	nt	-17%	?	nt	-2%
COc1ccc(CCNS(=O)(=O)c2cc3c4c(c2)CCN4C(=O)CC3)cc1	2%	1%	nt	nt	-14%[46.1 µM]	53%[activator]	nt	7%
O=C(Cn1cc([N+](=O)[O-])cn1)NC1CCCCCC1	-2%[46.1 µM]	1%	nt	2%	13%	22%	nt	2%
CCN(CC)S(=O)(=O)c1cccc(NC(=O)CCNC(=O)NC23CC4CC(CC(C4)C2)C3)c1	?	-1%	nt	nt	?	-17%	nt	1%
Nc1c(Cl)cnc(C(Cl)(Cl)Cl)c1Cl	0%[46.1 µM]	17%	nt	-7%	nt	-24%	nt	-4%
Cc1ccc(CNC(=O)CCCC(=O)Nc2cc(C)on2)cc1	8%[46.1 µM]	-9%	nt	-1%	1%	3%	nt	1%
COc1ccc(S(=O)(=O)Nc2ccc(-c3ccc(N4CCCC4)nn3)cc2)cc1C	0%	10%	nt	nt	-5%	78%[activator]	nt	2%
COc1ccc(CCC(=O)N2CCN(S(=O)(=O)c3ccc4ccccc4c3)CC2)cc1	-14%	-2%	15%	7%	?	-30%	-1.4%	?
O=C(NC1CCCCC1)N(Cc1cc2cc3c(cc2[nH]c1=O)OCCO3)CC1CCCO1 (stereo unspecified)	-3%&-3%	17%	-16%	8%	2%	-3%	-12%	-2%
COc1ccc(S(=O)(=O)NCCSCc2ccc(Cl)cc2)cc1NC(C)=O	?	-10%	nt	nt	-29%	10%	nt	4%
O=C(Nc1ccccc1-c1ccccc1)c1cccc([N+](=O)[O-])c1	?	-11%	6%	-7%	10%	-7%	-2.4%	-14%
COc1ccc(C2NS(=O)(=O)OCC2C)cc1 (stereo unspecified)	nt	14%	nt	-11%	nt	-19%	nt	-17%
O=C1CC(c2ccccc2)CC(O)=C1C=Nc1ccc(O)cc1 (stereo unspecified)	?	2%	nt	1%	?	-8%	nt	0%
ClC1=C(Cl)C2(Cl)C3C(Cl)C=CC3C1(Cl)C2(Cl)Cl (stereo unspecified)	nt	8%	-2%&0%	nt	nt	-2%&-10%	-4.7%&3.0%	-5%
COc1ccc(CC(=O)NNc2ncnc3c2cnn3C)cc1OC	?	-11%	3%	2%	2%	-10%	2.0%	-9%
O=C(Nc1ccc(NC(=O)c2cccs2)cc1)c1cccc(Br)c1	nt	nt	-11%	nt	8%[46.1 µM]	5%	-0.6%	nt
COc1ccccc1OCCSc1ncnc2nc[nH]c12	-8%	10%	-2%	2%	5%	-15%	3.9%	-2%
COc1cc(C)c(CN2CCCCC2CO)cc1C (stereo unspecified)	-7%	5%	1%	-5%	3%	-21%	5.1%	0%
Cc1ccc(S(=O)(=O)CCC(=O)OC(C)C(=O)N2CCc3ccccc32)cc1 (stereo unspecified)	-30%	18%	nt	nt	-3%	-8%	nt	-3%
CCOC(=O)C1(CC)NC(c2cccc(F)c2)C2C(=O)N(CC)C(=O)C21 (stereo unspecified)	?	14%	5%	7%	18%	0%	-0.1%	6%
COC(=O)C(C(=O)OC)c1ccc(NC(=O)c2cccc(Cl)c2)cc1	?	4%	nt	0%	11%	27%	nt	0%
CCn1cc(C(=O)NCC(C)C)c(=O)c2cc(F)c(N3CCN(C)CC3)cc21	?	5%	nt	2%	3%	-9%	nt	1%
Oc1ccc(/C=N/Nc2nccnc2Cl)c(O)c1	?	-17%	-1%	-99%	?	9%	0.5%	3.2µM*
CCOc1ccc(-c2cc(C(=O)NN)[nH]n2)cc1	-19%	20%	8%	?	-7%	50%[activator]	-1.3%	-6%
O=C1NC(=O)C(CCc2ccncc2)(Cc2ccc(OCc3ccccc3)cc2)C(=O)N1	0%	13%	nt	2%	0%	-15%	nt	0%

The listing continues:
SMILES	MARV entry inh	RE007 growth inh	Cruzain noTriton	NS1 function inh	LASV entry inh	2A StopGo	Cruzain Triton	SARS PLP yeast
CC(C)(C)N1CC(c2nc3ccccc3n2CCOc2ccccc2)CC1=O (stereo unspecified)	-10%	-21%	24%	-26%	4%	-9%	-2.9%	0%
CCCCNc1nc(=S)[nH]c2cc(OC)c(OC)cc12	0%[46.1 µM]	-4%	2%	2%	0%	11%	-6.5%	-20%
COc1ccc(NC(=O)c2ccc(CN3CCN(c4ccccc4)CC3)cc2)cc1	?	3%	-15%	-15%	?	?	1.7%	8%
CCc1ccc(NC(=S)NCC2CCCN2CC)cc1 (stereo unspecified)	0%[46.1 µM]	1%	nt	nt	?	17%	nt	-1%
COc1cccc2cc(C(=O)N3CCN(c4ncccn4)CC3)c(=O)oc12	2%	4%	-13%	3%	15%	17%	-1.5%	-8%
COc1cccc(CNC(=O)C(=O)NCCC2CCCCN2S(=O)(=O)c2ccccc2)c1 (stereo unspecified)	-28%	-13%	nt	nt	-3%	-28%	nt	13%
O=C1CSC(c2ccc(F)cc2)N1c1nc2ccccc2s1 (stereo unspecified)	4%	-2%	-13%	5%	?	9%	-4.2%	-32%
CCCc1nc2sc3c(N4CCCCC4)ncnc3c2c2c1CCCC2	12%[46.1 µM]	nt	-10%	nt	-2%[46.1 µM]	-15%	0.8%	nt
Cc1ccc(N(CC(=O)Nc2cc(C)ccc2C)S(=O)(=O)c2c(C)noc2C)cc1	-14%[46.1 µM]	nt	5%	nt	-6%[46.1 µM]	-27%	-5.4%	nt
COc1ccc(CCNC(=O)C(=O)NCc2ccc(C)cc2)cc1OC	9%	-4%	13%	6%	-7%	5%	3.7%	-4%
COc1ccc(CNC(=O)C2CCCN(c3nn4c(=O)cc(C)nc4s3)C2)cc1 (stereo unspecified)	nt	5%	nt	2%	nt	-10%	nt	0%
Cn1c(=O)c2[nH]c(Cc3cccc4ccccc34)nc2n(C)c1=O	?	-5%	nt	nt	?	0%	nt	nt
